# Screening data as filed in PubChem.
# Rango complex inh: inhibitors of Rango-importin beta complex formation; Q14974; Potency, µM (top dose mostly 92.2 µM), inactives show at the highest dose inhibition of complex formation; actives 0.031% (n = 340,000); Rango CFP/YFP FRET sensor + importin beta, 45 min; active = rising FRET ratio curve, often small or poorly fitted; inconclusive = mostly compound fluorescence or quenching in the first reads; inactive = flat curves in all reads;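 note: potency is the fitted concentration of half-maximal effect; 0% = DMSO wells and 100% = buffer wells lacking importin beta; nearly all actives have a fitted effect of over 15% in size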
#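 Inhibition scored from the CFP 486 nm/YFP 530 nm FRET ratio 45 min after adding 0.125 microM importin beta to 50 nM Rango biosensor preincubated 5 min with compound (room temperature, PBS with DTT, Tween-20, BSA). No-importin wells as positive control.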
# miR-21 reporter: raises the signal of a miR-21 reporter; HeLa miR-21 FLuc reporter, luciferase, 48 h; Potency, µM (doses to about 38.3 µM), inactives show at the highest dose reporter change, positive = more light; 340,000 tested, under 10 active; AID 2288; active = well fitted rising curve with a large enough effect; inconclusive = small, poorly fitted or top-dose-only effect; inactive = no such curve, though single readings can be large or run the other way;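 note: % of control where 0% means no effect; miR-21 action dims this reporter so a rising signal means less miR-21 action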
#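 Luminescence from a firefly luciferase reporter carrying a miR-21 binding site downstream, stably expressed under a CMV promoter in HeLa cells that make miR-21 endogenously, reports miRNA modulation after 48 h compound exposure up to approximately 40uM final.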
# Rango release inh: inhibition of RanGTP-driven Rango-importin beta dissociation; O95149+P62826; Biochemical FRET Rango-importin beta, RanGTP-induced dissociation; Potency, µM (doses to about 46.1 µM), for inactives: at the highest dose activity change, negative = inhibition; actives 0.071% (n = 340,000); AID 540253; active means falling FRET ratio curve, often poorly fitted, with flat reads before Ran was added; inconclusive means other falling curves, or compound fluorescence or quenching; inactive means flat or rising ratio curve;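 note: potency is the fitted concentration of half-maximal effect; % of control where 0% means no effect; nearly all actives have a fitted effect of over 45% in size; -100% = wells without RanGTP and RCC1; the record marks most hits as doubtful in a second field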
#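 Quantitative HTS using a FRET biosensor: 0.1 uM Rango, 0.25 uM importin beta, 0.6 uM Ran, 2 mM GTP, 0.2 uM RCC1 final, PBS with DTT, Tween-20 and BSA. Post-read taken 45 min after Ran addition.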
# GLA inh pH 4.5: alpha-galactosidase A (human) inhibition, pH 4.5; P06280; purified enzyme, 4-MU-alpha-Gal fluorescence, pH 4.5; activity change, negative = inhibition, % at 105 µM; 230,000 tested, under 10 active; AID 1467; inconclusive = small, poorly fitted or top-dose-only inhibition, or a rising curve; inactive = flat fitted curve, though single readings scatter; no compound was filed as active;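 note: 0% = full activity with enzyme and -100% = basal without enzyme; dose as in the result columns while the protocol names 77 µM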
# Target sequence (P06280 whole entry, looked up): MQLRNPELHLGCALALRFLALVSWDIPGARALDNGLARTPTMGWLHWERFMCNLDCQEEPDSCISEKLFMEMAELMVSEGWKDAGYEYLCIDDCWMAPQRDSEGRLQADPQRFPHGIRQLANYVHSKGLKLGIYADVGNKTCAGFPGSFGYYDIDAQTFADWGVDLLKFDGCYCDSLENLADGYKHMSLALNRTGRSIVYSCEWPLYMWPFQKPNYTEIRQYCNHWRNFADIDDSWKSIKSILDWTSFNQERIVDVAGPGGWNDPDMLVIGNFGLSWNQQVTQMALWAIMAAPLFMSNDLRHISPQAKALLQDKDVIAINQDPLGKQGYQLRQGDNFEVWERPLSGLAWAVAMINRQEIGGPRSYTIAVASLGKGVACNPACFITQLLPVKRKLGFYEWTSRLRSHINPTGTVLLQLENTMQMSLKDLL
# Starred values were filed as active, the others as inactive; ? = inconclusive; · = not tested or not shown; & = joins results of further samples. These rows are one share of the data, so the mix of outcomes need not match the whole.
SMILES,Rango complex inh,miR-21 reporter,Rango release inh,GLA inh pH 4.5
O=C(NCC1CCCO1)c1cc(S(=O)(=O)N2CCOCC2)c(Cl)cc1Cl (stereo not given),-2.9%,-0.7%,1.3%,·
CC(C)CC(C)NC(=O)c1ccc(C(F)(F)F)cc1 (stereo not given),-2.2%,-9.5%,0.6%,-0.7
O=C(CCNS(=O)(=O)c1ccc(Br)cc1)N1CCN(c2ccccc2O)CC1,-2.9%,·,-3.1%,·
CCN(C(=O)CSc1nnc(-c2ccncc2)n1-c1ccccc1)C1CCS(=O)(=O)C1 (stereo not given),2.6%,1.4%,-10.8%,-2.8
O=c1c2ccccc2nnn1Cc1nnc(-c2ccccc2Br)o1,-2.5%,-42.4%,-18.5%,1.5
CCCC12CN3CC(C)(CN(C1)C3c1ccc([N+](=O)[O-])o1)C2=O (stereo not given),2.6%,3.5%,0.1%,-2.3
COC(=O)c1ccc(CN(C(C)=O)c2ccccc2)o1,0.7%,-0.6%,-5.1%,-1.2
CSCCC(=O)Nc1cc(S(=O)(=O)N2CCOCC2)ccc1N1CCN(C)CC1,-2.8%,-0.3%,19.7%,-1.0
O=C(COc1cc([N+](=O)[O-])cc2cccnc12)NCCC1=CCCCC1,0.5%,2.3%,-10.1%,·
CCN(C(=O)COC(=O)c1cc2c(s1)CCC(C)C2)c1c(N)n(Cc2ccccc2)c(=O)[nH]c1=O (stereo not given),-5.8%,·,-19.1%,·
COc1ccc(CCNC(=O)C2CC(=O)N(C3CCCCCCC3)C2)cc1OC (stereo not given),5.9%,-0.8%,-7.7%,-3.1
Cc1noc(C)c1C(=O)N1CCN(S(=O)(=O)c2ccc(F)cc2)CC1,-3.1%,-2.5%,6.7%,-0.4
CON(C)S(=O)(=O)c1ccc2c(c1)NC(=O)C1CCCN21 (stereo not given),?,-2.9%,?,-6.4
COc1cccc(C(=O)Nc2cccc3ccccc23)c1,0.0%,-32.9%,-10.3%,·
Cc1ccc(-c2cc(C(=O)Nc3cc(C(=O)O)ccc3C)c3ccccc3n2)cc1,-0.8%,-4.4%,-4.5%,-6.2
CCSc1nnc(NC(=O)[C@@H](NC(=O)c2ccc(C(C)(C)C)cc2)C(C)C)s1,1.0%,-2.1%,0.6%,-8.2
Cc1noc(NS(=O)(=O)c2ccc(N/C=C\C(=O)c3ccc(Br)cc3)cc2)c1C,?,-22.0%,?,-20.7
COCCCN(C(=O)CSc1nc2ccccc2c(=O)n1C)c1c(N)n(Cc2ccccc2)c(=O)[nH]c1=O,-1.9%,·,-9.8%,·
C#CCOCCOCCOCCNc1nc(N2CCN(C(=O)Cn3cc(CCO)nn3)CC2)nc(N2CCN(C(=O)[C@H](Cc3ccc(O)cc3)n3cc(CCO)nn3)CC2)n1,?,·,8.8%,·
CC(OC(=O)CCN1C(=O)C2CC=CCC2C1=O)C(=O)Nc1cccc(C#N)c1 (stereo not given),-0.6%,·,20.7%,·
COC(=O)c1ccc2c(=O)n(CC3CCCO3)c(SCC(=O)NCCc3ccc(S(N)(=O)=O)cc3)nc2c1 (stereo not given),-3.0%,-0.2%,9.5%,5.7
O=C(NCCC(NS(=O)(=O)OCC(Cl)(Cl)Cl)c1ccccc1)C(F)(F)F (stereo not given),0.5%,4.0%,0.2%,·
Nc1nc2c(ncn2COCCO)c(=O)[nH]1,2.7%,-3.5%,16.0%,-8.8&-4.8&8.4&-19.2
C=CCNC(=O)C1CCN(c2ccc(S(=O)(=O)N3CCOCC3)cc2Cl)CC1,4.6%,6.5%,-14.5%,4.6
COC(=O)c1ccccc1NC(=S)NC(=O)COc1ccccc1Cl,0.3%,-5.8%,11.8%,-7.2
CCOC(=O)C1CCN(c2cc3c(cc2NC(=O)c2ccccc2F)n(C)c(=O)n3C)CC1,4.6%,0.9%,-6.9%,·
Cc1cc(C)cc(N(CC(=O)NCc2ccco2)S(=O)(=O)c2ccccc2)c1,2.8%,-0.1%,-7.3%,·
O=C(COc1coc(CN2CCN(c3cccc(Cl)c3)CC2)cc1=O)NC1CCCC1,2.2%,·,5.7%,·
CCCCCCC(=O)Nc1ccc(Cl)cn1,-0.4%,-42.3%,-2.1%,4.8
COc1ccc(OC)c(/C=N/NC(=O)c2ccc(=O)[nH]n2)c1,-0.2%,-1.5%,11.0%,-9.1
C[C@H](CO)N1C[C@H](C)[C@@H](CN(C)Cc2ccncc2)Oc2c(NC(=O)CCC(F)(F)F)cccc2C1=O,5.5%,·,-12.3%,·
Cc1ccnc(NC(=O)C2CC(=O)N(c3ccc4c(c3)OCCO4)C2)c1 (stereo not given),-0.1%,0.6%,0.8%,·
O=C(NCc1ccccc1)C(c1cccnc1)N(C(=O)c1csnn1)c1ccccc1 (stereo not given),1.4%,-1.8%,4.1%,·
CC(C)(C)c1ccc(-n2ncc3c2CCCC3NC(=O)CCN2CCCCC2=O)cc1 (stereo not given),3.8%,12.4%,4.8%,·
CC(C)CCNC(=S)Nc1ccccn1,1.2%,0.9%,7.2%,-2.9
NC(=O)CSc1n[nH]c(=O)n1CCc1ccccc1,-0.3%,-3.7%,-0.4%,·
CC(=O)NNC(=O)c1sc(=S)n(C)c1C,-0.3%,1.3%,3.9%,-1.0
CCCn1c(N)c(N2CCCCC2)c(=O)n(CC(=O)Nc2ccccc2C)c1=O,0.7%,0.8%,-15.1%,1.5
O=C(COC(=O)COc1ccccc1)Nc1ccc(OC(F)(F)F)cc1,-3.0%,-5.3%,-20.5%,1.8
CC(=O)N(NC(=O)c1ccccc1Cl)C1CC(=O)N(c2ccc(C)cc2)C1=O (stereo not given),1.0%,-1.3%,-15.4%,10.1
O=C(Nc1ccccc1C(=O)NCc1cccnc1)c1ccco1,1.0%,2.3%,-0.4%,-13.8
COc1ccc(CNS(=O)(=O)NCc2ccccc2F)cc1,-6.7%,-8.7%,9.0%,·
O=C(CSc1nnc(-c2ccccc2)n1Cc1ccccc1)N1CCOCC1,-0.6%,-5.7%,-12.7%,-2.8
CC(=O)Nc1cc(S(=O)(=O)Nc2ccccc2)c(C)cc1C,-3.1%,0.0%,-1.1%,-8.7
CCOC1=C/C(=C/c2c(N)n3nc(CC(=O)N4CCCCC4)sc3nc2=O)C=CC1=O,?,4.7%,?,·
CC(=O)c1c(N2CCCC2)[nH]c(-c2ccccc2)nc1=S,3.8%,-11.8%,7.6%,0.5
CN(C(=O)C1CCC(=O)N(CCCN2CCCC2=O)C1)C(C1CC1)C1CC1 (stereo not given),-2.4%,-5.5%,-15.0%,·
CC(NC(=O)COC(=O)CNC(=O)C1CCCCC1)c1ccccc1 (stereo not given),-3.1%,·,-4.6%,·
CC(C)CC(=O)N1CCN(C(=O)c2cccc(F)c2)CC1,7.2%,-0.1%,-12.1%,-7.8
CCCCN(C)CCC(=O)Nc1ccc2c(c1)CCC2,-0.6%,14.7%,1.4%,5.4

# Continuation:
SMILES,Rango complex inh,miR-21 reporter,Rango release inh,GLA inh pH 4.5
CC1CCN(CCNC(=O)C2CCN(S(=O)(=O)c3cccc4nsnc34)CC2)CC1,0.0%,0.8%,?,·
Cc1cc(C(=O)NCC(c2ccco2)N(C)C)no1 (stereo not given),3.1%,-4.1%,-2.7%,3.9
CCCCc1ccc(NC(=O)N[C@H](C(=O)O)C(C)CC)cc1 (stereo not given in full),-0.4%,-7.6%,2.1%,2.8
COc1ccc(OC)c(C2CC(=O)OC3=C2C(=O)CC(C)(C)C3)c1 (stereo not given),-1.6%,0.0%,-8.0%,3.7
COc1cccc(NS(=O)(=O)c2ccc(-n3cccn3)cc2)c1,1.6%,9.8%,14.8%,·
COc1ccc(C(=O)Nc2cc(-c3ccccc3)nn2-c2ccccc2F)cc1,-1.8%,·,6.6%,·
CCOc1nc(-c2ccccc2)ccc1-c1noc(-c2cccnc2)n1,0.3%,·,-8.8%,·
Cc1cccc(-c2noc(CN(C)C(=O)c3ccoc3C)n2)c1,-0.5%,-27.7%,11.4%,·
O=C(NC(=S)NCc1ccccc1)C1CCCCC1,0.2%,-8.0%,0.2%,1.5
COc1cc2c(cc1OC)C1Cc3ccc(OC)c(OC)c3CN1CC2 (stereo not given),0.4%,11.7%,6.3%,-8.7&-3.3
COc1ccc(C2=NN(C(=O)c3ccncc3)C(c3ccccc3O)C2)cc1 (stereo not given),?,-13.5%,?,·
Cc1ccc(CCNC(=O)C23C[C@H]4C[C@@H](C2)CC(n2nnc(C)n2)(C4)C3)cc1,-3.5%,19.4%,9.7%,7.2
Cc1ccc(S(=O)(=O)N2CCOCC2)cc1NC(=O)COC(=O)c1cc[n+]([O-])cc1,-3.5%,·,14.9%,·
Cc1nnc(NC(=O)c2ccccc2Oc2ccccc2)s1,-5.1%,0.1%,4.0%,5.5
Cc1cccc(C)c1NC(=S)Nc1ccccc1C(=O)NCc1ccco1,-1.8%,-7.9%,2.7%,6.8
CCCn1c(C)nc2cc(Cl)c(N3CCN(c4nc(-c5ccc(C)cc5)cs4)CC3)cc21,?,8.2%,-12.2%,·
O=C(/C=C/c1ccc(Cl)cc1Cl)NCCN1CCOCC1,-0.2%,-10.3%,7.1%,7.6
O=C(NCc1cccnc1)c1ccc(Cn2cc(C(F)(F)F)ccc2=O)cc1,2.5%,-1.5%,11.1%,10.4
Cc1ccc2oc(=O)c3cc(C(=O)NCCCN4CCCC(C)C4)sc3c2c1 (stereo not given),0.5%,-3.1%,-1.2%,·
O=c1c(Cl)nc2cc(Cl)ccc2n1CCNc1ncc(C(F)(F)F)cc1Cl,10.0%,-0.7%,14.5%,2.2
COc1ccccc1CNC(=O)c1cc(S(=O)(=O)N2CCCC2)cn1C,0.0%,1.1%,25.1%,·
CCCOc1ccc(C2C(C(=O)c3ccc(C)o3)=C(O)C(=O)N2Cc2ccco2)cc1OCC (stereo not given),?,-8.4%,?,·

# In the list so far, two contain a tert-butyl group:
SMILES,Rango complex inh,miR-21 reporter,Rango release inh,GLA inh pH 4.5
CCSc1nnc(NC(=O)[C@@H](NC(=O)c2ccc(C(C)(C)C)cc2)C(C)C)s1,1.0%,-2.1%,0.6%,-8.2
CC(C)(C)c1ccc(-n2ncc3c2CCCC3NC(=O)CCN2CCCCC2=O)cc1 (stereo not given),3.8%,12.4%,4.8%,·

# Among those listed so far, 11 contain fluorine.
SMILES,Rango complex inh,miR-21 reporter,Rango release inh,GLA inh pH 4.5
CC(C)CC(C)NC(=O)c1ccc(C(F)(F)F)cc1 (stereo not given),-2.2%,-9.5%,0.6%,-0.7
Cc1noc(C)c1C(=O)N1CCN(S(=O)(=O)c2ccc(F)cc2)CC1,-3.1%,-2.5%,6.7%,-0.4
O=C(NCCC(NS(=O)(=O)OCC(Cl)(Cl)Cl)c1ccccc1)C(F)(F)F (stereo not given),0.5%,4.0%,0.2%,·
CCOC(=O)C1CCN(c2cc3c(cc2NC(=O)c2ccccc2F)n(C)c(=O)n3C)CC1,4.6%,0.9%,-6.9%,·
C[C@H](CO)N1C[C@H](C)[C@@H](CN(C)Cc2ccncc2)Oc2c(NC(=O)CCC(F)(F)F)cccc2C1=O,5.5%,·,-12.3%,·
O=C(COC(=O)COc1ccccc1)Nc1ccc(OC(F)(F)F)cc1,-3.0%,-5.3%,-20.5%,1.8
COc1ccc(CNS(=O)(=O)NCc2ccccc2F)cc1,-6.7%,-8.7%,9.0%,·
CC(C)CC(=O)N1CCN(C(=O)c2cccc(F)c2)CC1,7.2%,-0.1%,-12.1%,-7.8
COc1ccc(C(=O)Nc2cc(-c3ccccc3)nn2-c2ccccc2F)cc1,-1.8%,·,6.6%,·
O=C(NCc1cccnc1)c1ccc(Cn2cc(C(F)(F)F)ccc2=O)cc1,2.5%,-1.5%,11.1%,10.4
O=c1c(Cl)nc2cc(Cl)ccc2n1CCNc1ncc(C(F)(F)F)cc1Cl,10.0%,-0.7%,14.5%,2.2
